POLK inh – qHTS for Inhibitors of Polymerase Kappa | purified Pol kappa, fluorescent DNA synthesis assay, 10 min | Potency, µM (highest dose often 107 µM), for the others: at the highest dose activity, negative = inhibition, actives largely listed as inhibitors | hit rate 0.53% among 400,000 | AID 588579, 2011; note: % is set by controls: 0 for no effect and ±100 for the full control effect
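Inhibition of 10 nM Pol kappa is measured by a fluorescent read-out at 0 and 10 min following addition of 50 nM substrate (final), with a 15-min room-temperature compound preincubation.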
BLM helicase inh – qHTS Assay for Inhibitors of Bloom's syndrome helicase (BLM); hit rate 0.2% among 350,000; recombinant BLM DNA unwinding, fluorescence dequenching; Potency, µM (series often up to 56.1 µM), for the others: at the top dose activity change, negative = inhibition, hits mostly inhibitors;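 note: plate controls were vehicle for no effect and no enzyme for full effect; nearly all actives have a fitted effect of over 35% in size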
Target sequence (P54132 whole entry, looked up): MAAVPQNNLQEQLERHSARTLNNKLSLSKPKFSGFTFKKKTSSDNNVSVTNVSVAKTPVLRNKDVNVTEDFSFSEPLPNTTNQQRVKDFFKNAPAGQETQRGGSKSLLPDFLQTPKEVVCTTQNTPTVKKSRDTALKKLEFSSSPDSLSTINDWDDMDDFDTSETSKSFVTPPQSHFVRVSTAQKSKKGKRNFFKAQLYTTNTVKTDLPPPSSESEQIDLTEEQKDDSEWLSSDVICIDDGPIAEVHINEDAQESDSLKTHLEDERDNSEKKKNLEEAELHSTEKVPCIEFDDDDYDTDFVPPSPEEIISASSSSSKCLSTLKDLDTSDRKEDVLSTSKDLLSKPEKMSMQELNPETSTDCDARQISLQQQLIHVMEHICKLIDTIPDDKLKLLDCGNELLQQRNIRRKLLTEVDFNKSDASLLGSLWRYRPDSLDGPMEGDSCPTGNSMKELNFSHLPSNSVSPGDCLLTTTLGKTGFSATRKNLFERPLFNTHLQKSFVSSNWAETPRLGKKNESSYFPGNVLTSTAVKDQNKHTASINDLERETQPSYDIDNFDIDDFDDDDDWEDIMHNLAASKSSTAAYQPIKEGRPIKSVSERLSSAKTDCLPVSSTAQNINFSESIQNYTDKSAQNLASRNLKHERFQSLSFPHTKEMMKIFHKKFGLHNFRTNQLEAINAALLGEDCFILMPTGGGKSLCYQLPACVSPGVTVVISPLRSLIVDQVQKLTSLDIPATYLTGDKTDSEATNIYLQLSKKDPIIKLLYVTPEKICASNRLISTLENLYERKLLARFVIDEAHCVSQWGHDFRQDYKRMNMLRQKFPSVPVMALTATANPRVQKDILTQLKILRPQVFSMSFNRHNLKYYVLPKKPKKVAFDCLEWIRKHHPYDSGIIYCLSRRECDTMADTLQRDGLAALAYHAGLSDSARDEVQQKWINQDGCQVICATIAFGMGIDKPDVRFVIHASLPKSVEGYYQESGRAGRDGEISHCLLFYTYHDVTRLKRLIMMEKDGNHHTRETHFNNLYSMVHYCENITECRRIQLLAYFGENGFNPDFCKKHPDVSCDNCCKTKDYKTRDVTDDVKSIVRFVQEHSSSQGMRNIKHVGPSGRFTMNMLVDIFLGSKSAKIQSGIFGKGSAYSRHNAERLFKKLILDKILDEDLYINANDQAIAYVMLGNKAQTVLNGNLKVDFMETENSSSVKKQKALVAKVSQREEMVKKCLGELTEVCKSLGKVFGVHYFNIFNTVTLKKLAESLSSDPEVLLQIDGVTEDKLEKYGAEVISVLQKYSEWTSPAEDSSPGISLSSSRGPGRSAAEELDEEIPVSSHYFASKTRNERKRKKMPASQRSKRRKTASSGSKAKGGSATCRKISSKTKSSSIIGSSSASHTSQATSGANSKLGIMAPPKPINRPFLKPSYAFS
POLB inh – qHTS Assay for Inhibitors of DNA Polymerase Beta; AID 485314, 2010; hit rate 1.3% among 340,000; Potency, µM (titrated, usually from 114 µM), for the others: top-dose activity change, negative = inhibition, usual class: inhibitors; Pol beta primer extension/strand displacement, fluorescence kinetic; P06746; note: % is set by controls: 0 for no effect and ±100 for the full control effect
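Human Pol beta at 10 nM; strand-displacement substrate 50 nM final. Compound exposure 15 min at room temperature before start, reaction 10 min at room temperature.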
G9a inh – qHTS Assay for Inhibitors of Histone Lysine Methyltransferase G9a; hit rate 8.8% among 350,000; Potency, µM (highest dose often 102 µM), without a hit: at the top dose activity, negative = inhibition, most hits filed as inhibitors; AID 504332, 2011; Histone-lysine N-methyltransferase EHMT2 (Homo sapiens), Q96KQ7; G9a H3K9 monomethylation, AlphaScreen, 2 h; note: % is set by controls: 0 for no effect and ±100 for the full control effect; nearly all actives have a fitted effect of over 75% in size
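Methyltransferase reactions run at room temperature for 2 h (20 nM enzyme, 500 nM biotin-H3K9 peptide, 20 uM SAM) after a 15 min compound preincubation; product detected by AlphaScreen beads and anti-H3K9me1 antibody.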
Pol iota inh – qHTS for Inhibitors of Polymerase Iota. AID 588590, 2011. hit rate 1% among 390,000. DNA polymerase iota (Homo sapiens), Q9UNA4. Potency, µM (doses to about 115 µM), inactives show top-dose activity, negative = inhibition, most hits filed as inhibitors. Pol iota fluorescent replication assay, 10 min
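Pol iota at 10 nM preincubated 15 min with compounds at room temperature; reaction started with fluorescent substrate, 50 nM final. Fluorescence read kinetically at 0 and 10 min; buffer-only wells as negative control.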
Pol eta inh – qHTS for Inhibitors of Polymerase Eta; DNA polymerase eta (Homo sapiens), Q9Y253; recombinant Pol eta, fluorescent DNA replication assay; Potency, µM (titrated, usually from 114 µM), inactives show at the highest dose activity change, negative = inhibition, actives largely listed as inhibitors; hit rate 1.2% among 390,000; note: % is set by controls: 0 for no effect and ±100 for the full control effect
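Pol eta (10 nM) was preincubated with compounds for 15 min at room temperature, after which fluorescent replication substrate (50 nM final) was added to start the reaction. Fluorescence was read kinetically at 0 and 10 min.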
JMJD2A Tudor inh – qHTS Assay for Inhibitors of JMJD2A-Tudor Domain; Lysine-specific demethylase 4A (Homo sapiens), O75164; AlphaScreen JMJD2A-Tudor / H3K4me3 peptide binding; Potency, µM (top dose mostly 114 µM), inactives show at the top dose activity change, negative = inhibition, hits mostly inhibitors; hit rate 4.4% among 390,000; AID 504339, 2011; note: % is set by controls: 0 for no effect and ±100 for the full control effect; nearly all actives have a fitted effect of over 50% in size
APEX1 inh – qHTS Assay for Inhibitors of the Human Apurinic/apyrimidinic Endonuclease 1 (APE1) | DNA repair nuclease/redox regulator APEX1 (Homo sapiens), P27695 | recombinant APE1, TAMRA/BHQ-2 abasic DNA cleavage fluorescence | Potency, µM (highest dose often 65.8 µM), without a hit: at the highest dose activity change, negative = inhibition, most hits filed as inhibitors | hit rate 0.35% among 350,000;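 note: plate controls were vehicle for no effect and reference inhibitor for full effect; nearly all actives have a fitted effect of over 55% in size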
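APE1 at 0.75 nM final was preincubated with compound 15 min at room temperature, then 50 nM double-stranded THF abasic-site substrate (5'-TAMRA/3'-BHQ-2) was added. Fluorescence (ex 525/em 598 nm) was read kinetically; third-minus-first read gave activity.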
Numbers without * were called inactive; ? = inconclusive; . = not tested or not shown; & = joins results of further samples; [ ] = remark or other dose. Calls come from the whole dose curve; as a rule, active = well fitted curve in the direction sought with a large enough effect; inconclusive = small, poorly fitted or top-dose-only effect, or another doubt; inactive = no such curve, though single readings can be large; an effect the other way counts as inactive or inconclusive. Potency is the fitted concentration of half-maximal effect. This is a subset; rates above refer to the full screens.

POLB inh,Pol eta inh,JMJD2A Tudor inh,POLK inh,G9a inh,Pol iota inh,APEX1 inh,BLM helicase inh,SMILES
6%,5%,?,-11%,-43%,42%[activator],?,-11%,CC(=O)c1ccc(NCC2COc3ccccc3O2)c([N+](=O)[O-])c1 (stereo not given)
7%,.,.,.,32µM*,.,-4%,-4%,O=[N+]([O-])c1cc([N+](=O)[O-])c2cccnc2c1O
-8%,-22%,-29%,-1%,2%[12.7 µM],41%[activator],0%,-13%,CC1Cc2ccccc2N1CC(=O)NC(=O)NC1CCCCC1 (stereo not given)
19%,-14%,?,-8%,?,1%,.,-6%,Cc1ccc(NC(=O)CSc2ncc(-c3ccccc3)[nH]2)cc1
-4%,-21%,?,-8%[60.1 µM],?,?,-2%,-3%,COc1cc(-c2nc3ccccn3c2/N=C/c2ccccc2)ccc1O
11%,-10%,-33%,8%,2%[12.7 µM],-10%,-3%,-1%,CCOC(=O)CCCCC(=O)c1[nH]c(=O)[nH]c1Cn1ccnc1
.,-8%,?,-16%,50µM*,70%[activator],-15%,.,Cc1cc(C)c2nc(N(CCCN(C)C)C(=O)c3ccc(S(=O)(=O)N4CCCCCC4)cc3)sc2c1
4%,-31%,?,-18%,?,43%[activator],-1%,-13%,CCc1ccc(C(=O)NC(=S)Nc2ccccc2N2CCOCC2)cc1
17%,-16%,?,-8%,-26%,181%[activator],12%,-2%,COc1cccc(N/C(SCc2cccc([N+](=O)[O-])c2)=C(/C#N)C(N)=O)c1
-1%,-19%,-22%,-7%,7%,9%,20%,-3%,CN1C(=O)/C(=C/c2ccccc2F)Sc2ccc(C(=O)N3CCCC3)cc21
?,-16%,71%[activator],0%,54%[activator][59 µM],1%,1%,?,N/C(Cc1cccc2ccccc12)=N\OC(=O)Cc1cccs1
-6%,-17%,-15%,3%[60.1 µM],-8%,?,-3%,-7%,Cc1ccc(/C=N/N(Cc2ccccc2)c2ccccc2)o1
-4%,-13%,?,-4%,?,42%[activator],17%,1%,CCCCN(C)CCNC(=O)c1ccc(Cn2c(=S)[nH]c3ccc(Br)cc3c2=O)cc1
19%,-7%,-7%,-5%,-18%[59 µM],5%,0%,-2%,Cc1ccc(NC(=O)C2CC(c3ccc(F)cc3)=NO2)cc1 (stereo not given)
-2%,-27%,?,-13%[60.1 µM],-38%[59 µM],-21%,.,-4%,CC(C)Oc1ccc(CNC(=O)CN2C(=O)CCn3nc(-c4cn(C)c5ccccc45)cc32)cc1

Ordered by the number under BLM helicase inh (high to low): 3 of the compounds above
POLB inh,Pol eta inh,JMJD2A Tudor inh,POLK inh,G9a inh,Pol iota inh,APEX1 inh,BLM helicase inh,SMILES
-2%,-27%,?,-13%[60.1 µM],-38%[59 µM],-21%,.,-4%,CC(C)Oc1ccc(CNC(=O)CN2C(=O)CCn3nc(-c4cn(C)c5ccccc45)cc32)cc1
6%,5%,?,-11%,-43%,42%[activator],?,-11%,CC(=O)c1ccc(NCC2COc3ccccc3O2)c([N+](=O)[O-])c1 (stereo not given)
-8%,-22%,-29%,-1%,2%[12.7 µM],41%[activator],0%,-13%,CC1Cc2ccccc2N1CC(=O)NC(=O)NC1CCCCC1 (stereo not given)

The main list resumes; the 3 compounds before the break are reprinted first.
POLB inh,Pol eta inh,JMJD2A Tudor inh,POLK inh,G9a inh,Pol iota inh,APEX1 inh,BLM helicase inh,SMILES
-4%,-13%,?,-4%,?,42%[activator],17%,1%,CCCCN(C)CCNC(=O)c1ccc(Cn2c(=S)[nH]c3ccc(Br)cc3c2=O)cc1
19%,-7%,-7%,-5%,-18%[59 µM],5%,0%,-2%,Cc1ccc(NC(=O)C2CC(c3ccc(F)cc3)=NO2)cc1 (stereo not given)
-2%,-27%,?,-13%[60.1 µM],-38%[59 µM],-21%,.,-4%,CC(C)Oc1ccc(CNC(=O)CN2C(=O)CCn3nc(-c4cn(C)c5ccccc45)cc32)cc1
.,-17%,3%,2%,1%[12.7 µM],13%,44%[activator],.,CCN(CC(=O)Nc1ccc(NC(C)=O)cc1)C(=O)C1CCCN(C(=O)c2ccc(Cl)cc2)C1 (stereo not given)
-2%,-25%,-24%,3%,7%[0.501 µM],25%,-6%,-4%,O=C(/C=C(\O)c1ccccc1)C(=O)NNC(=O)c1ccccc1
3%,6%,?,-5%,79µM*,18%,18%,-10%,COc1ccc(OC)c(NC(=O)Nc2ccc3c(c2)OCO3)c1
25%,-15%,-3%,-9%,16%,6%,-10%,1%,Cc1nnc(SCC2CCCO2)n1-c1ccccc1 (stereo not given)
0%,-17%,-36%,-6%,35µM*,12%,16%,-10%,N#Cc1nc(-c2cccs2)oc1NCCc1ccccc1
13%,0%,-34%,-2%,50µM*,24%,-6%,4%,O=C1OC(c2ccc(F)cc2)=N/C1=C\c1ccc(Br)o1
6%,-6%,-22%,-12%,-2%[12.7 µM],0%[58.9 µM],7%,2%,CCOC(=O)N1CCN(Cc2nc(N)nc(Nc3ccc(OCC)cc3)n2)CC1
-13%,-17%,15%,-15%[60.1 µM],20µM*,10%,-4%&2%,-13%[75.6 µM],O=C(c1ccc(Br)o1)N(Cc1ccccc1)Cc1ccccc1
2%,-10%,-23%,-18%,?,-5%,14%,-6%,O=C(CSCc1cnn(-c2ccccc2)c1-n1cccc1)NCc1cccs1
6%,-21%,-34%,-6%,-32%[2.33 µM],131%[activator],6%,-5%,CC(C)c1ccc(Nc2ccc(C(=O)O)cc2[N+](=O)[O-])cc1
6%,?,?,-14%,?,-3%,-3%,-12%,O=C(c1ccc(N2CCCCC2)c([N+](=O)[O-])c1)N1CCN(c2ccccn2)CC1
-1%,-16%,-29%,-14%,3%[59 µM],16%,5%,0%,CC1Cc2ccccc2N1CC(=O)NCc1ccc2c(c1)OCO2 (stereo not given)
9%,8%,-4%,-15%,.,-16%,13%,-4%,Cc1ccc(S(=O)(=O)N(C)CC(=O)N/N=C/c2ccc(C)o2)cc1
-14%,.,.,.,50µM*,.,-1%,2%,COc1ccccc1N1CCN(C2CCN(C3CCC(c4ccccc4)CC3)CC2)CC1 (stereo not given)
-16%,-23%,?,3%,15%[12.7 µM],-9%,-17%,-7%,Cc1cccc2c(C(=O)N3CCN(c4ccccc4)CC3)cc(-c3ccncc3)nc12

2 successive records from above:
POLB inh,Pol eta inh,JMJD2A Tudor inh,POLK inh,G9a inh,Pol iota inh,APEX1 inh,BLM helicase inh,SMILES
3%,6%,?,-5%,79µM*,18%,18%,-10%,COc1ccc(OC)c(NC(=O)Nc2ccc3c(c2)OCO3)c1
25%,-15%,-3%,-9%,16%,6%,-10%,1%,Cc1nnc(SCC2CCCO2)n1-c1ccccc1 (stereo not given)

Remaining list, next part:
POLB inh,Pol eta inh,JMJD2A Tudor inh,POLK inh,G9a inh,Pol iota inh,APEX1 inh,BLM helicase inh,SMILES
2%,-17%,-21%,-10%,14µM*,-18%,.,-11%,CCOC(=O)c1ccccc1NC(=O)c1sc2nc3n(c(=O)c2c1C)CCCC3
5%,-18%,-6%,-5%,?,3%,9%,3%,CCOC(=O)C(=O)C1=C(N2CCOCC2)/C(=C\c2cccc([N+](=O)[O-])c2)CC1
-12%,-2%,-14%,-1%,4%,10%,7%,-2%,COC(=O)c1cccc(S(=O)(=O)N2CCC(NC(=O)Nc3cccc(F)c3)CC2)c1
13%,.,.,.,?,.,-5%,-1%,CCOC(=O)CN(C)Cc1c[nH]c2ccccc12
2%,-8%,-22%,-4%,40µM*,76%,5%,-8%,Cc1ccc(C)c(NC(=S)N/N=C2\CCc3ccccc32)c1
?,-15%,?,-6%,-46%[12.7 µM],23%,-4%,1%,CCCc1cc(-c2n[nH]c(C)c2-c2ccc(C(=O)OCC)o2)c(O)cc1O
-10%,-7%,-3%,-3%,20%[59 µM],10%,.,-2%,N#C/C(=C\c1ccc(F)cc1)c1nc(-c2ccc(-c3ccccc3)cc2)cs1
25µM*,-1%,-25%,79µM*,4µM*,71µM*,?,-6%,CCOC(=O)NC1(NC2CCCCC2)Oc2ccccc2O1
0%,0%,-4%&-13%,-3%,-49%,13%,1%,-1%,Cc1cccc(-n2cnc3cc(C(=O)N4CCCCC4)ccc32)c1
-1%,-5%,?,-17%,.,1%,-3%,-6%,O=C(c1ccco1)N1CCN(c2nc(-c3ccc(F)cc3)cs2)CC1
10%,-18%,-7%,13%,8%[59 µM],11%,.,2%,Cn1c(=O)n(C)c2cc(N3CCOCC3)c(NS(=O)(=O)c3ccc(F)cc3)cc21
10%,?,?,-8%,-27%[59 µM],19%,-2%,-1%,CCc1ccc(-c2nc(CN3CCC(C(=O)N4CCN(c5ccccc5)CC4)CC3)c(C)o2)cc1
33%,-17%,-16%,-4%,?,57%[activator],3%,-3%,O=C(NCCc1ccccc1)c1cccc(N2C(=O)C3CC=CCC3C2=O)c1 (stereo not given)
4%,-16%,-6%,-16%,-47%,91%[activator],-7%,-9%,Cc1ccc(N2CC(C(=O)NCc3ccc(C)n3C)CC2=O)cc1 (stereo not given)
-23%,-9%,-34%,-6%,.,32%[activator],1%,-7%,CN(Cc1ccccn1)Cc1cn(Cc2ccccc2)nc1-c1ccc2c(c1)OCO2
22%,5%,7%,7%,32µM*,15%,36%,?,CC1CCC(NC(=O)C2CC(=O)N(c3ccc(Cl)cc3)C2)CC1 (stereo not given)
-23%,-22%,-17%,-4%,?,89%[activator],-6%,?,Cc1cc(C(=O)Cn2cnc3cc([N+](=O)[O-])ccc3c2=O)c(C)n1CC1CCCO1 (stereo not given)
2%,-17%,-25%,-7%,?,-22%,.,-4%,COc1cccc(/C=C/c2nc(C#N)c(N3CCCCCC3)o2)c1
-6%,-5%,-25%,12%,10%[12.7 µM],-6%,20%,-3%,CC(C)n1cnc2c(N(C)c3cccc(Cl)c3)nc(N(CCO)CCO)nc21
1%,-16%,-20%,-11%,6%[59 µM],3%,.,-28%,CC(C)COc1ccc(C2=NC(c3ccncc3)=Nc3ccc(F)cc3N2)cc1

Assay outcomes (PubChem)
